UUG fidelity: modulators of start codon recognition fidelity in yeast. S. cerevisiae UUG-firefly luciferase reporter, luminescence/redox ratio. activity score, % at 18.7 µM. 350,000 tested, 0.13% active. AID 602363;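 active = replicate mean at a twofold rise or more, about +100% in these data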;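 note: firefly luciferase made from a UUG start codon reports start codon fidelity; reporter light over untreated wells divided by growth signal over untreated wells; some hits fall short of that in this replicate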
MT1-MMP act inh: inhibitors of human MT1-MMP activation; P50281; HT1080 RFP-PRO-GFP cells, GFP/RFP ratio fluorescence, overnight; percent of plate control window, DMSO zero; GFP/RFP ratio change, % at 20 µM; 360,000 tested, 0.061% active; AID 651647;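 active = GFP/RFP ratio change of at least 30% with cell ATP level not reduced by more than half and red fluorescence within 50% of control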; note: strong numbers were not always called active
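system = RFP-PRO-GFP reporter HT1080 cells | dosing = 20 µM single dose, 1% DMSO | timing = overnight cell settling, then overnight compound exposure, 37 °C, 5% CO2 | read-out basis = GFP/RFP fluorescence ratio | controls = DMSO and RFP-L50D-GFP cell wells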
MT1-MMP act inh RFP: further read-out of MT1-MMP act inh, marked with its call; RFP signal change, %; measured here: RFP expression control read;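 0 = vehicle wells; hits needed this value within 50% of zero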
* marks the source's active call; other numbers are inactive results; & = joins results of further samples.

UUG fidelity	MT1-MMP act inh	MT1-MMP act inh RFP	Molecule
-16	-6	-6	Cc1ccc(S(=O)(=O)N2C[C@H]3C(=O)C[C@@H](c4ccccc4)N(S(=O)(=O)c4ccc(Br)cc4)[C@H]3C[C@H]2c2ccccc2)cc1
-14	-1	-6	CCCCOC(=O)c1ccc(NC(=O)CN2C(=O)NC3(CCCCCC3)C2=O)cc1
18&5	5	1	C[C@@H]1CN([C@H](C)CO)C(=O)CCCn2cc(nn2)CO[C@H]1CN(C)C(=O)Nc1ccc(C(C)(C)C)cc1
-10	2	1	O=C(CCNC(=O)c1ccc(Cl)cc1)NC1CCCCCC1
-16	-3	-2	Cc1ccc(S(=O)(=O)N2CCN(Cc3ccccc3)CC2)s1
0	5	1	CCC1(c2ccccc2)NC(=O)N(CC(=O)Nc2cccc(S(=O)(=O)N3CCCC3)c2)C1=O (stereo unspecified)
-11	6	1	CSc1ncccc1C(=O)OCC(=O)Nc1cccc(S(=O)(=O)N2CCOCC2)c1
9	-5	-4	Cc1ccc(C(=O)Nc2cc(S(=O)(=O)N3CCOCC3)ccc2N2CCCC2)cc1
-8	-7	3	CC(C)(C)OC(=O)n1cccc1/C=C1\c2ccccc2C(=O)N1c1ccccc1
-36	5	2	Cc1cc2c(cc(C(=O)OC(C)C(=O)NCc3ccc(F)cc3)n2C)o1 (stereo unspecified)
5	1	0	Cc1cc(Br)ccc1NC(=O)CN(C)C(=O)c1cccc(S(=O)(=O)N2CCN(C)CC2)c1
-8	3	3	COc1ccc(C(CNC(=O)c2cc(S(=O)(=O)Nc3cccc(C)c3)ccc2C)N2CCOCC2)cc1 (stereo unspecified)
2	4	0	CCN(CC)CCNC(=O)c1ccc(NC(=O)c2cccc(S(=O)(=O)N3CCCCCC3)c2)cc1
-5	7	0	COc1ccccc1NS(=O)(=O)c1cc(NC(=O)C(C)NC(N)=O)ccc1N1CCCC1 (stereo unspecified)
-13	-10	-9	CCCCN(C(=O)c1ccccc1Br)C(c1ccc(OC)cc1)c1nc2ccccc2[nH]1 (stereo unspecified)
-13	3	1	O=C1CCC(C2CCc3cc(O)ccc3C2)C1 (stereo unspecified)
-19	3	4	COc1ccc(-n2c(SCC(=O)Nc3cc(C)on3)nc3c(c2=O)SC(C)C3)cc1 (stereo unspecified)
5	-3	5	O=C(Cc1ccc(S(=O)(=O)N2CCOCC2)s1)OCc1ccc(Cl)cc1
-9	11	1	Cn1c(=O)c2[nH]c(NN=Cc3ccc(F)cc3)nc2n(C)c1=O
-4	-20	7	Clc1ccc(N2O[C@H]3C=C[C@@H]2C3)nc1
-14	4	-2	CCOC(=O)C1=CCN(S(=O)(=O)c2ccccc2Br)C1c1cccc(Cl)c1 (stereo unspecified)
-5	-3	-2	CCOC(=O)[C@H]1[C@H]2COc3ccc(Br)cc3[C@H]2N2C(=O)CN(CCc3c[nH]c4ccccc34)C(=O)[C@@]12C
2	5	-14	CN1CCN(S(=O)(=O)c2ccc(N(C)Cc3ccc(C(F)(F)F)cc3)c([N+](=O)[O-])c2)CC1
3	0	6	CC(C)(C)S(=O)N1Cc2cc(=O)n(Cc3ccccc3)cc2[C@H]1CCO (stereo partly specified)
-18	1	6	COc1ccccc1NC(=O)CSc1nnc2ccccn12

The last 3 compounds of the part above come first, to join the parts.
UUG fidelity	MT1-MMP act inh	MT1-MMP act inh RFP	Molecule
2	5	-14	CN1CCN(S(=O)(=O)c2ccc(N(C)Cc3ccc(C(F)(F)F)cc3)c([N+](=O)[O-])c2)CC1
3	0	6	CC(C)(C)S(=O)N1Cc2cc(=O)n(Cc3ccccc3)cc2[C@H]1CCO (stereo partly specified)
-18	1	6	COc1ccccc1NC(=O)CSc1nnc2ccccn12
-2	0	0	NC(=O)c1ccc(OCc2ccccc2)nc1
-5	-3	-8	C[C@]12c3[nH]c4cc(-c5ccco5)ccc4c3CCN1C(=O)[C@@H](CC(=O)NCc1ccco1)C[C@@H]2C(=O)N1CCCCC1
-17	-19	-6	CC(=O)Nc1cccc(-c2cnc(N)c(C(=O)c3cccnc3)n2)c1
-7	4	3	Cc1ccc(S(=O)(=O)N2CCOCC2)cc1C(=O)N1CCN(S(=O)(=O)c2ccccc2F)CC1
-9	5	5	CCOc1ccc(NC(=O)CN(C)C(=O)C2CC2C)cc1OCC (stereo unspecified)
-15	-4	-2	Cc1noc(C)c1CSCC(=O)Nc1cc(C(F)(F)F)ccc1N1CCOCC1
1	1	3	Cc1ccccc1NC(=O)Cc1nc(COC(=O)c2ccc([N+](=O)[O-])cc2)cs1
-6	6	7	Nc1nc(N)c2cc([N+](=O)[O-])ccc2n1
-7	6	5	CCOc1ccc(OCCCC(=O)Nc2cc(S(=O)(=O)N3CCOCC3)ccc2N2CCOCC2)cc1
-15	0	-1	O[C@H]1C[C@H](c2ccc(Cl)cc2)N(Cc2cccs2)C[C@@H]1n1cc(-c2ccc(F)cc2)nn1
-2	5	3	CCCCCCN1C[C@H](n2cc(-c3ccc(F)cc3)nn2)[C@@H](O)C[C@@H]1c1ccccc1
-4	-2	6	Cc1cccc(C(=O)N(Cc2ccco2)c2c(N)n(Cc3ccccc3)c(=O)[nH]c2=O)c1
0	0	4	CCCN(C(=O)C(NC(=O)c1ccccc1)C(C)C)c1c(N)n(Cc2ccccc2)c(=O)[nH]c1=O (stereo unspecified)
-5	9	-14	CN(C)S(=O)(=O)c1cccc(NC(=O)COc2ccccc2C(=O)Nc2ccccc2)c1
-14	0	9	C=C[C@]1(C)C=C2CC[C@H]3[C@@](C)(CCC[C@@]3(C)C(=O)O)[C@@H]2CC1
-8	16	0	Cc1cc(F)ccc1-c1cc(C(=O)NCc2ccc(C(F)(F)F)cc2)[nH]n1
-34	-2	-2	O=C(CCCN1C(=O)/C(=C\c2cccc(Br)c2)SC1=S)Nc1ccc(C(=O)O)cc1
-17	1	-4	COc1cc(CN(C2CC2)S(=O)(=O)c2ccccc2Br)cc(OC)c1
-5	1	8	O=C(O)c1[nH]c(-c2ccccc2)c2c1C(=O)N(C1CC1)C2=O
-2	1	3	COc1ccc(CNC(=O)C2CCN(S(=O)(=O)c3ccc4nc5c(c(C(=O)O)c4c3)CCCC5)CC2)cc1
6	6	1	CN(Cc1cccnc1)C(=O)c1cc(S(=O)(=O)Nc2ccccc2F)ccc1Cl
3	27	-3	CC(C)(C)c1ccc(-c2nnc(SCC(=O)NC3CC3)o2)cc1
-6	0	1	O=C1CCCN1c1ccc([N+](=O)[O-])cc1
-13	-8	2	CCN1C(=O)[C@H]2[C@@H](c3ccc(-c4ccc(C(C)=O)cc4)cc3)N[C@@](C)(C(=O)OC)[C@H]2C1=O
-7	-7	-11	CC(=O)C1=CCC(c2ccc(C(C)C)cc2)N(S(=O)(=O)c2ccc(C)cc2)C1 (stereo unspecified)

In the list so far, three contain a furan ring, fused or not:
UUG fidelity	MT1-MMP act inh	MT1-MMP act inh RFP	Molecule
-36	5	2	Cc1cc2c(cc(C(=O)OC(C)C(=O)NCc3ccc(F)cc3)n2C)o1 (stereo unspecified)
-5	-3	-8	C[C@]12c3[nH]c4cc(-c5ccco5)ccc4c3CCN1C(=O)[C@@H](CC(=O)NCc1ccco1)C[C@@H]2C(=O)N1CCCCC1
-4	-2	6	Cc1cccc(C(=O)N(Cc2ccco2)c2c(N)n(Cc3ccccc3)c(=O)[nH]c2=O)c1

Shown with each value named: entries from further up.
CC(C)(C)c1ccc(-c2nnc(SCC(=O)NC3CC3)o2)cc1
  UUG fidelity = 3; MT1-MMP act inh = 27; MT1-MMP act inh RFP = -3

O=C1CCCN1c1ccc([N+](=O)[O-])cc1
  UUG fidelity = -6; MT1-MMP act inh = 0; MT1-MMP act inh RFP = 1

New compounds follow.
UUG fidelity	MT1-MMP act inh	MT1-MMP act inh RFP	Molecule
-1	1	-1	O=C(COC(=O)c1ccc2c(c1)OCO2)Nc1ccccc1F
-8	10	2	CCCNC1(C(N)=O)CCN(Cc2ccccc2)CC1
-4	0	2	Cc1cccc(C(O)c2ncc(-c3ccccc3)[nH]2)c1C (stereo unspecified)
-14	0	1	CCOc1ncccc1C(=O)OCC(=O)NC(=O)c1ccccc1
-4	-2	-2	COc1ccc(S(=O)(=O)c2ccccc2)cc1NS(=O)(=O)c1cccc(C(=O)O)c1
-13	0	-2	COc1cc(C(=O)NNC(=O)c2ccccc2OCc2c(C)noc2C)cc(OC)c1OC
-20	-5	1	CCc1noc(C)c1C(=O)OCC(=O)NCc1ccccc1OC
-12	1	-7	CC(=O)Nc1ccc(NC(=O)COC(=O)c2c(-c3ccccc3)noc2C)cc1
-16	2	-2	O=C(Nc1ccccn1)C1CCN(S(=O)(=O)c2ccccc2)CC1
-3	2	3	COc1ccc(NC(=O)CSc2nc3[nH]c(=O)cc(O)c3s2)cc1OC
-7	4	1	COc1ccc2cc([C@H](C)C(=O)OCc3cn(CC(=O)c4ccc(O)cc4)nn3)ccc2c1
-17	-1	-8	COc1ccc(-c2cc(CCC(=O)N3CCN(c4cc(C)ccc4C)CC3)on2)cc1
-11	0	5	COC(=O)C1C2CC(C(Br)C2Br)C1C(=O)O (stereo unspecified)
-3	2	1	COc1ccc(CN(C)C(=O)CNC(=O)c2cccs2)c(OC)c1
12	-5	-22	CC1C(=O)N(Cc2cn(CC3CCCCC3)nn2)CCS(=O)(=O)N1Cc1ccc(-c2ccncc2)cc1 (stereo unspecified)
-12	8	-5	C=CCOc1ccc(/C=C/C(=O)OCC(=O)N2CCC(c3ccccc3)=N2)cc1
-2	-1	0	Cc1cc(OCC(=O)OCC(=O)NCC2CCCO2)ccc1Cl (stereo unspecified)
-16	-2	1	N#Cc1ccccc1COC(=O)CCC(=O)c1cccs1
12	12	-2	COc1cc(C(=O)OCC(=O)NC2CCCCC2)cc2c1OCCO2
-10	0	0	COc1ccc(C)cc1NC(=O)C(c1ccccc1)N1CCN(CC(=O)NC2CC2)CC1 (stereo unspecified)
-6	2	-4	CC1C(=O)N(Cc2cn(Cc3ccco3)nn2)CCS(=O)(=O)N1Cc1ccc(-c2ccccc2Cl)cc1 (stereo unspecified)
-3	-1	-2	Cc1ccc2nc(-c3ccco3)c(Cc3cccc(F)c3)n2c1
-3	-1	-24	CCOc1ccc(NS(=O)(=O)c2ccc(C(=O)N(C)CC(=O)Nc3cccc(OC)c3)cc2)cc1
-19	3	-1	COc1cc(CN(C)C(=O)C2CCN(S(=O)(=O)c3cccs3)CC2)ccc1OC(F)F
-18	5	-1	CC(C)CNC(=O)c1cccc2c(-c3cccnc3)coc12
-17	-5	-2	CC1=C(C(=O)N2CCOCC2)CC(CC(=O)NCCCCc2ccccc2)C(=O)N1CCC1=CCCCC1 (stereo unspecified)
-12	-1	4	COCCNC(=O)C1(C)CCN(C(=O)/C=C/c2ccccc2)C1 (stereo unspecified)
-13	-2	0	COCCNC(=O)c1[nH]c(C(F)(F)F)nc1-c1ccccc1

Not all compounds are listed; the hit share may differ from the screen's.
